Source: PubChem
VDR inh: inhibitors of human vitamin D receptor | VDR-SRC2-3 peptide fluorescence polarization, 2 h | Potency, µM, for inactives: max response, negative = inhibition, actives largely listed as inhibitors | actives 0.93% (n = 400,000); active = well fitted inhibition curve with a large enough effect; inconclusive = small, poorly fitted or top-dose-only effect, or another doubt; inactive = no such curve, though single readings can be large or run the other way; note: series mostly up to about 120 µM
Target sequence (P11473 whole entry, looked up): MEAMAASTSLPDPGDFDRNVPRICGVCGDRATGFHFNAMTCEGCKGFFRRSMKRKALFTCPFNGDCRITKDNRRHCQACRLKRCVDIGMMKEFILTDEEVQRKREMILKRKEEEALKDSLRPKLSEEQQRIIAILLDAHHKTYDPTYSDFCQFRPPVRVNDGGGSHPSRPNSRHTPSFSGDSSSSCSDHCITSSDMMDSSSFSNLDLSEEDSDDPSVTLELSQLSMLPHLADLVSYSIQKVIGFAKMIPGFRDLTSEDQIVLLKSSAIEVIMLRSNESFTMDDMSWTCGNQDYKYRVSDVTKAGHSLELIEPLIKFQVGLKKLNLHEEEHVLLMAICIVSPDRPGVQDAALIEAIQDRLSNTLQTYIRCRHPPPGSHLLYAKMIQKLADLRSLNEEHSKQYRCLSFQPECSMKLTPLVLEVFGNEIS
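VDR–SRC2-3 interaction, FP format. Cmpds 23 nl via pintool, brief spin, 2 h ambient incubation.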
* hit, by the source's call; ? = inconclusive; & = joins results of further samples. % is set by controls: 0 for no effect and ±100 for the full control effect; potency is the fitted concentration of half-maximal effect. An excerpt; rates above refer to the full screens.

SMILES	VDR inh
Cc1ccccc1CNC(=O)CN(c1cccc([N+](=O)[O-])c1)S(C)(=O)=O	2.4%
CCN(CC)CC(=O)NCC1(c2ccccc2)CCCC1	-11.4%
CCOC(=O)N1CCc2c(sc(NC(=O)CN3CCN(C)CC3)c2C(=O)Nc2ccccc2)C1	1.6%
Cc1ccn(CC(=O)O)c(=O)c1	-7.8%
Cc1cc(OCCCC(=O)NCCN2C(=O)S/C(=C\c3cccnc3)C2=O)ccc1Cl	1.6%
C/C(=C\c1ccccc1)C(=O)c1c(C)cc(C)[nH]c1=O	-19.2%
COCCCNC(=O)c1nn(C)c2c1CS(=O)(=O)c1ccccc1-2	0.2%
COc1ccc(-n2nc3c(N4CCC(C(=O)NCc5cccc(F)c5)CC4)nnc(C)c3c2C)cc1	0.2%
CN(N)c1nc(-c2ccccc2)cc(-c2ccccc2)n1	-14.6%
Cc1ccsc1C(=O)NCC(C)(C)N1CCOCC1	10.5%
COC(=O)c1c(C)[nH]c(C(=O)/C=C/c2ccc(Cl)cc2)c1C	-8.4%
Cn1c(-c2ccc(S(=O)(=O)N3CCCC3)cc2)csc1=Nc1ccc(Cl)c(Cl)c1	-0.1%
CCCC(=O)Nc1ccc(Cl)c(NC(=S)NC(=O)c2cc3ccccc3o2)c1	-5.7%
COc1cc(CCC(=O)NNC(=O)c2ccc(C)cc2)cc(OC)c1OC	10.5%
Cc1ccc(-n2c(-c3cnccn3)n[nH]c2=S)cc1	-7.1%
CCCCCNC(=O)C1CCC(Cn2c(=S)[nH]c3ccccc3c2=O)CC1 (stereo not drawn)	17.1%
COc1cc([N+](=O)[O-])cc(/C=N/NC(=O)C(C)Nc2ccccc2C)c1O (stereo not drawn)	3.1%
CCOc1ccc2nc(N3C(=O)/C(=C/c4ccccc4)NC3=S)sc2c1	0.7%
CN1c2ccccc2N(C)C1(C)c1ccccc1	?
C=CCNC(=O)COC(=O)c1cccnc1Nc1ccccc1F	0.5%

Overlap with the part before: 2 compounds, followed by the next part.
SMILES	VDR inh
CN1c2ccccc2N(C)C1(C)c1ccccc1	?
C=CCNC(=O)COC(=O)c1cccnc1Nc1ccccc1F	0.5%
O=C(c1ccc(Br)cc1)c1cc2ccc(O)cc2oc1=O	?
CC(C)(C)c1ccc(C(=O)N/N=C/c2ccc(OCCCF)cc2)cc1	?
COc1ccc(C2/C(=C(/O)c3ccc(C)cc3)C(=O)C(=O)N2c2ccccn2)cc1OC (stereo not drawn)	-29.2%
CCN(Cc1ccccc1)C(=O)c1ccccc1C	-20.8%
Cc1ccc(CNC(=O)c2sc3nc[nH]c(=O)c3c2C)cc1	6.8%
CNc1nc2ccccc2n1CC(=O)c1ccccc1	-9.6%
O=C(O)C1=C[C@H](C2CC2)C[C@H](OCCCCO)O1	-9.1%
CCC1(C)Cc2c(sc3nc4n(c(=O)c23)CCCS4)CO1 (stereo not drawn)	-10.7%
COC(=O)c1c(NC(=O)CSc2nnnn2-c2ccccc2)sc2c1CCC(C)C2 (stereo not drawn)	5.4%
COCCn1c(=NC(=O)c2ccc(S(=O)(=O)N3CCCc4ccccc43)cc2)sc2cc(S(C)(=O)=O)ccc21	-19.2%
O=C(/N=C1\NC(=O)C(F)(C(F)(F)F)S1)NC1CCCCC1 (stereo not drawn)	50.1µM*
COCc1nc2c([nH]1)c(=O)n(C)c(=O)n2CC(C)C	-0.7%&13.3%
O=C1CS/C(=C\S(=O)(=O)c2ccc(Cl)cc2)N1	-4.0%
CCCCNC(=O)N1CCN(c2ncccn2)CC1	-6.4%
O=C(CCc1nnc2ccc(N3CCC4(CC3)OCCO4)nn12)NCc1ccc(F)cc1	-13.2%
COc1ccc(/C=C2/N=C(SCC(=O)Nc3cc(C)on3)N(c3ccccc3)C2=O)cc1	-16.0%
c1nnc(-c2ccc3c(c2)OCO3)o1	17.2%
COc1cc(NC(=O)CN(c2ccc(C)cc2)S(=O)(=O)c2c(C)nn(C)c2C)cc(OC)c1	-3.6%
COc1ccc(-c2nc(C)c(CCNC(=O)C(=O)Nc3ccccc3F)s2)cc1	-0.2%
CCCCSc1nnc([C@H](C)NC(=O)OC(C)(C)C)o1	9.7%

7 compounds out of the list, arranged by number of heavy atoms, low to high.
SMILES	VDR inh
c1nnc(-c2ccc3c(c2)OCO3)o1	17.2%
CCCCNC(=O)N1CCN(c2ncccn2)CC1	-6.4%
O=C(c1ccc(Br)cc1)c1cc2ccc(O)cc2oc1=O	?
COc1ccc(-c2nc(C)c(CCNC(=O)C(=O)Nc3ccccc3F)s2)cc1	-0.2%
COC(=O)c1c(NC(=O)CSc2nnnn2-c2ccccc2)sc2c1CCC(C)C2 (stereo not drawn)	5.4%
COc1ccc(/C=C2/N=C(SCC(=O)Nc3cc(C)on3)N(c3ccccc3)C2=O)cc1	-16.0%
COCCn1c(=NC(=O)c2ccc(S(=O)(=O)N3CCCc4ccccc43)cc2)sc2cc(S(C)(=O)=O)ccc21	-19.2%

Three compounds picked at random from the list so far, as already listed:
SMILES	VDR inh
Cc1ccn(CC(=O)O)c(=O)c1	-7.8%
COc1cc(NC(=O)CN(c2ccc(C)cc2)S(=O)(=O)c2c(C)nn(C)c2C)cc(OC)c1	-3.6%
Cn1c(-c2ccc(S(=O)(=O)N3CCCC3)cc2)csc1=Nc1ccc(Cl)c(Cl)c1	-0.1%

The listing continues:
SMILES	VDR inh
Cc1cccc(C)c1-n1nnnc1C1(Nc2ccccc2)CCCCC1	0.4%
Cc1c(NC(=O)C(C)OC(=O)c2ccc(Cl)nc2)c(=O)n(-c2ccccc2)n1C (stereo not drawn)	-2.9%
Cc1cc(-c2nc3cccnc3s2)ccc1NS(=O)(=O)c1ccc2c(c1)OCCO2	-13.6%
O=S(=O)(c1cccc(Cl)c1Cl)N1CCCCC1	9.2%
O=C1c2ccccc2C(Nc2ccc(S(=O)(=O)N3CCOCC3)cc2)N1c1cccnc1 (stereo not drawn)	6.1%
CSCCC1NC(=O)N(CC(=O)Nc2cccc3ccccc23)C1=O (stereo not drawn)	4.6%
CCOC(=O)/C(=N\Nc1ccccc1[N+](=O)[O-])c1csc(Nc2ccccc2)n1	4.3%
COc1cccc(C(=O)NCCC(=O)NCc2cc(=O)n(C)c(=O)n2C)c1	19.2%
O=C1NC(N2CCOCC2)=N/C1=C/c1ccc2c(c1)OCO2	1.1%
O=C(O)CCC(=O)Nc1nc2ccc([N+](=O)[O-])cc2s1	-3.5%
CCCCN(C)CCNC(=O)CSCc1ccc(C)cc1	-15.7%
COc1ccc(C(C(=O)NC(C)(C)C)N(CCC(C)C)C(=O)CCC(=O)Nc2cc(C)on2)cc1 (stereo not drawn)	-9.4%
S=c1[nH]nc(-c2ccc3c(c2)OCO3)n1-c1ccccc1	-17.5%
COc1ccccc1C(=O)Nn1c(-c2cccs2)nc2ccccc2c1=O	-4.2%
Cc1ccc2cc(C)c(NCCO)nc2c1	8.9%
Cc1ccnc(NS(=O)(=O)c2cccc3nsnc23)c1	4.9%
CCOc1ccc(NCc2cccn2-c2nnc(N3CCC(C(=O)NCCCN4CCCCC4CC)CC3)s2)cc1 (stereo not drawn)	-0.4%
O=C(Nc1ncc(Cc2ccc(SC(F)F)cc2)s1)c1ccccc1	5.9%
Cc1cccc(OCC(=O)N2CCCc3ccccc32)c1	11.3%
Cc1cc(C(=O)Nc2ccccc2C(=O)O)ccc1NC(=O)COc1cccc([N+](=O)[O-])c1	9.2%

Given field by field: 3 of the compounds above
> COc1ccccc1C(=O)Nn1c(-c2cccs2)nc2ccccc2c1=O
  VDR inh: -4.2%
> CCCCN(C)CCNC(=O)CSCc1ccc(C)cc1
  VDR inh: -15.7%
> O=C(Nc1ncc(Cc2ccc(SC(F)F)cc2)s1)c1ccccc1
  VDR inh: 5.9%

Next part.
SMILES	VDR inh
CCOC(=O)n1c(SCC(N)=O)nc2ccccc21	-1.2%
Cc1cc(Cl)ccc1NC(=O)C1CCCN1C(=O)c1cccs1 (stereo not drawn)	-2.1%
CC(C)c1ccc(/C=C2\SC(=S)N(CCC(=O)NCCCn3ccnc3)C2=O)cc1	3.7%
CCc1ccc(NS(=O)(=O)c2ccc3[nH]cc(C(=O)NC4CCCC4)c(=O)c3c2)cc1	6.9%
O=C1CCC/C(=N\NC(=O)c2ccc(NS(=O)(=O)c3ccc(Br)cc3)cc2)C1	2.1%
COc1ccc(C(=O)Oc2cc(/C=N/NC(N)=S)ccc2OC)cc1	0.5%
Cc1nc2cc(NCc3ccc(Cl)cc3)ccc2n1C	13.9%
O=c1c2cc(NC(=S)N3CCCCCC3)ccc2nc2n1CCCCC2	5.9%
COc1ccc(OC)c(NC(=O)c2sc3nc(Cc4ccccc4)cc(C(F)(F)F)c3c2N)c1	5.3%
CC1(c2ccc3c(c2)OCCO3)NC(=O)N(CC(=O)Nc2ccccc2F)C1=O (stereo not drawn)	5.9%
Cc1ccc(C(=O)NC(=S)NCCCN2CCOCC2)cc1	-6.8%
CN(Cc1ccco1)c1cc(-c2ccoc2)ncn1	28.2µM*
COc1ccccc1NC(=S)N1CCN(c2ccccn2)CC1	-21.2%
O=c1c2ccc(Cl)cc2[nH]c(=S)n1CCC1=CCCCC1	-0.5%
COc1cccc(CNC(=O)c2cc(C)nc3ccccc23)c1	-3.3%
Cc1c(C(=O)N2CC(C)OC(C)C2)[nH]c2ccc(Br)cc12 (stereo not drawn)	7.0%
CSc1ccc(/C=C(\C#N)C(=O)NC2CCCCC2)cc1	-9.7%
CN=C(C)/C(C(=O)OC)=C(/O)c1ccccc1F	-5.9%
O=C(CNc1cc(S(=O)(=O)N2CCOCC2)ccc1N1CCOCC1)Nc1cccc(C(F)(F)F)c1	-3.8%
